T cruzi inh – T. cruzi replication inhibition; T. cruzi beta-gal in NIH3T3, luminescence, 90 h; inhibition, % (test concentration not listed); 300,000 tested, 1.4% active; AID 1885;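 active means mean inhibition across valid replicates above about 55%, limit read from the data; inconclusive means mean below that limit but half or more replicates reach it; inactive means mean below it, under half of replicates reach it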;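 further: signal also drops with host cell toxicity which is not excluded here; 0% = plate median of DMSO wells and 100% = zero luminescence signal; higher percent means less beta-gal luminescence so fewer parasites; stock transfer was 50 nL into about 50 µL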
Bfl-1 A1 inh – inhibitors of the anti-apoptotic protein A1, read as caspase activation. MEF A1-2A-BIM cells, Caspase-Glo 3/7 luminescence, 3 h; percent of clofoctol response, vehicle zero. caspase activation, % (test concentration not listed). 330,000 tested, 0.066% active. AID 2462;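 active means over half of replicate activation scores above 10%, or exactly half above 10 with the replicate mean above 10; inconclusive means replicate mean below 10 yet half the replicates above 10; inactive means over half of replicates below 10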;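 further: wells of about 30 µL received 50 nL stock; many hits fall short of the cut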
Ecoli rRNA inh – inhibits bacterial ribosomal RNA function over humanized ribosomes; E. coli WT GFP vs humanized-ribosome RFP mutants, fluorescence, 24 h; stronger effect = lower value; DMSO median 0, no signal -100; GFP signal change (wild-type ribosome), % (test concentration not listed); 350,000 tested, 1.6% active; AID 720706;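 active means significant combined selectivity score with lowered wild-type GFP, culture density cut under 30%, mutant RFP and density less affected; inactive means any of these conditions unmet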; further: one replicate is shown; some compounds called inactive have numbers as strong as hits
ALR inh – blocks human ALR sulfhydryl oxidase activity | P55789 | purified ALR, DTT oxidation, H2O2 HRP-luminol luminescence | inhibition, % (no concentration beside the values) | 290,000 tested, 3.8% active | AID 485317;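 active means mean and each replicate at 75% or more; inconclusive means only one of the two met; inactive means neither met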;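 further: stock transfer was 7.5 nL into about 7.5 µL; 0% = neutral wells and 100% = wells with inactivated enzyme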
Calb FLC – affects C. albicans growth with fluconazole | growth inhibition, % (test concentration not listed) | C. albicans CaCi-2 (fluconazole-resistant clinical isolate) + fluconazole, Alamar Blue growth, 48 h | 300,000 tested, 0.57% active;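 active means most replicates above 75%; inconclusive means exactly half above 75%; inactive means most below 75%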;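 further: all wells also contain fluconazole at 8 µg/ml as a sub-toxic cotreatment; 0% = median of DMSO wells and 100% = median of geldanamycin control wells; wells of about 8 µL received 7.5 nL stock; the first replicate is given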
Beta apoptosis – blocks beta cell apoptosis. 300,000 tested, 0.8% active. AID 435005. INS-1E cytokine-induced death, ATP luminescence, 48 h; percent of positive-control rescue, neutral wells zero. protection from apoptosis, % (no concentration beside the values);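 active means all replicates at 75% or more, or half of them and the mean; inconclusive means half reach 75% but not the mean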;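 further: 0% = cytokine-treated negative control wells and 100% = positive control rescue; higher means more ATP so stronger rescue from cytokine killing; wells of about 40 µL received 100 nL stock; the first replicate is given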
LANA-H2A inh – blocks KSHV LANA binding to histone H2A/H2B. Q9QR71. cell-free LANA-H2A/H2B peptide, fluorescence polarization. inhibition, % (no concentration beside the values). 320,000 tested, 0.6% active; in the data active means inhibition mostly above about 10%, no sharp cut-off; inactive means mostly below about 6.7%;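 further: stock transfer was 7.5 nL into about 10 µL; 0% = median of vehicle wells and 100% = median of positive control wells; one replicate is shown; the record names a cut of 25% in any replicate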
Target sequence (Q9QR71 whole entry, looked up): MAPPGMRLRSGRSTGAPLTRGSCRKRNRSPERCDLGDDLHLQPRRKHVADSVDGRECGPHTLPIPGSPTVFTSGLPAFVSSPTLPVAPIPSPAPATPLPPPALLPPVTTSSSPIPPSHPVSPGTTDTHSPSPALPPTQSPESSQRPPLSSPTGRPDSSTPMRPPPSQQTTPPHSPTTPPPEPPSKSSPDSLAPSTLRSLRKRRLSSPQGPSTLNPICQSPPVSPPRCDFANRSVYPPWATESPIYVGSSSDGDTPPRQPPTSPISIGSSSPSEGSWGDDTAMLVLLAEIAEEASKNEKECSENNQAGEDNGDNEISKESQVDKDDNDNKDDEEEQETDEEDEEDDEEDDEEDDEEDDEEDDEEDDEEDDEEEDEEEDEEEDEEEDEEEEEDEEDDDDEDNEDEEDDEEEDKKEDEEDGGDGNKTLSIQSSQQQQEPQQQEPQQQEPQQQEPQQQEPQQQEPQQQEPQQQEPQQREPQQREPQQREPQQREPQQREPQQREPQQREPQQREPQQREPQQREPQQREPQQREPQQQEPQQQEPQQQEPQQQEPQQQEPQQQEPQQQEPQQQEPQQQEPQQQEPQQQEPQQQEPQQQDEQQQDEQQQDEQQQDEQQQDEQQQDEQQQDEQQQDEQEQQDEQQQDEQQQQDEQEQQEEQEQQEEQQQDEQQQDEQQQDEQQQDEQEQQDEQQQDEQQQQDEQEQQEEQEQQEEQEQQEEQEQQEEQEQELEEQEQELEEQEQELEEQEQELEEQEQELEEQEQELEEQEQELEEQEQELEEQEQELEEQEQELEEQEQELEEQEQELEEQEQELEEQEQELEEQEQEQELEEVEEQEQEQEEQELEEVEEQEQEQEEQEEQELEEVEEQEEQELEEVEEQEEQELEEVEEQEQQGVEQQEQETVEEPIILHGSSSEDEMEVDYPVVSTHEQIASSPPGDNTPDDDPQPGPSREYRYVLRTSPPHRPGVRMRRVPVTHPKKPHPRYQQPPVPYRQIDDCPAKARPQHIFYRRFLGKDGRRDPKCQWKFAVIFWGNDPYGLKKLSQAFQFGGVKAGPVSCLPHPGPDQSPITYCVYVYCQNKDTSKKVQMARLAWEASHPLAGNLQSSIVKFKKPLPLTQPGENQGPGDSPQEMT
Beta2AR agonist – agonists of human beta-2 adrenergic receptor inducing internalization | P07550 | Am2.2-beta2AR cells, FAP receptor internalization, flow cytometry; reference of the scale not given here | response, % (no concentration beside the values) | 340,000 tested, 0.43% active | AID 504454;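 active means response above a set limit, near 3 SD of response in nonfluorescent compounds, cut at about 42% in these data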;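 further: stock transfer was 100 nL into about 11 µL; a reference agonist was the positive control; negative values mostly stem from fluorescent compounds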
Ecoli rRNA inh OD600 – recorded beside Ecoli rRNA inh, whose call it bears; OD600 change, %; measured here: OD600 growth;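 optical density of the mix in the first replicate; 0 = DMSO median and -100 = no signal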
Ecoli rRNA inh RFP – recorded beside Ecoli rRNA inh, whose call it bears; RFP signal change, %; measured here: RFP humanized mutant strains;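 first replicate; 0 = DMSO median and -100 = no signal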
* = called active by the depositor; u = inconclusive; x = no result given.

Results follow in this order: Bfl-1 A1 inh, T cruzi inh, LANA-H2A inh, Beta apoptosis, Ecoli rRNA inh, Calb FLC, Ecoli rRNA inh RFP, ALR inh, Ecoli rRNA inh OD600, Beta2AR agonist
CCC(/C=N/Nc1ccc(S(=O)(=O)N2CCCC2)cc1[N+](=O)[O-])CC
  0.4, -11, 2.2, -6, 11, 8, 12, -1, 2, 3
O=C1CC(SC2=NCCS2)C(=O)N1c1cccc(Cl)c1Cl (centres undefined)
  0.3, -14, -0.6, 1, -1, 8, 1.4, 42, 0, -3
Cc1cc(OCC(=O)NCc2cccnc2)c2c(C)c(C)c(=O)oc2c1
  1.2, -8, 0.3, 1, 1, 6, -3.4, 0, 2, -6
COc1ccc(OC)c(NC(=S)NCc2cccnc2)c1
  -1.8, -11, -2.1, -5, 14, -5, 1.0, -25, 13, 3
COc1ccc(CCNC(=O)Cn2c(=O)n(CCCC(=O)NCc3ccco3)c(=O)c3sccc32)cc1OC
  0.7, -7, 0.5, -1, 17, 3, -1.8, -5, 7, -6
COc1ccc(OCc2cc(C(=O)N[C@H]3CCCCNC3=O)no2)c(Cl)c1
  -0.2, -4, 4.9, 7, -1, -4, 3.4, -5, -2, 2
CS(=O)(=O)Cc1ccc(C(=O)N2CCCC2c2cccs2)cc1 (centres undefined)
  2.0, -35, 0.3, -5, 0, 24, 4.2, -1, 5, -2
COCCCN(CC(=O)O)S(=O)(=O)c1cccc(Cl)c1
  0.3, 3, -0.7, -8, 13, -7, 3.0, -19, 15, -6
COc1ccc(Cl)cc1NC(=S)Nc1ccccc1F
  0.1, -3, 0.3, -5, -19, 20, -1.3, -2, -12, -2
CC1CCCN(S(=O)(=O)c2coc(C(N)=O)c2)C1 (centres undefined)
  -0.6, -15, 5.6, -12, 4, 7, -0.2, -7, 9, 7
N#C/C(=C\c1ccc(OC(=O)c2ccc(Br)s2)cc1)c1nc2ccccc2[nH]1
  -8.6, x, 4.8, 2, x, x, x, 8, x, -17
CN(Cc1ccon1)C(=O)CC1C(=O)NCCN1Cc1ccccc1C(F)(F)F (centres undefined)
  x, -5, x, x, 3, -13, -3.0, x, 3, -7
O=C(CCCn1cc([N+](=O)[O-])cn1)NC1CCCCCC1
  -0.7, 1, 1.3, 4, 11, -6, 3.1, x, 6, -2
CCNc1nnc(-c2ccncc2)s1
  1.5, -5, 1.1, -1, x, -1, x, x, x, 3
O=[N+]([O-])c1cc(Br)cc(/C=N/n2cnnc2)c1O
  -0.1, 46, 1.2, -1, 0, 14, 8.6, -8, 5, 11
CCOC(=O)C1CCCCN1Cc1ccc(-c2ccccc2)cc1 (centres undefined)
  1.3, 17, -1.2, -2, -29*, -23, -1.2*, 18, -21*, 7
O=c1c2cc(Br)ccc2nc(-c2ccc(Cl)cc2)n1O
  0.4, -22, 2.6, 5, -31, 24, -12, x, -30, 3
Cn1c(NC(=O)C2CCCC2)cc(=O)n(C)c1=O
  -0.2, 3, 5.4, -9, 0, -3, -0.8, -7, -2, 1
Cc1cc(-c2ccc(C(C)C)c(S(=O)(=O)N3CCOc4ccccc43)c2)on1
  0.4, 27, -3.5, 23, -4, 4, -1.6, -3, 1, -2
O=C(CCN1C(=O)c2ccccc2C1=O)C1=NN[C@@H]2C(=O)N(c3cccc(Cl)c3)C(=O)[C@H]12
  0.5, -9, -0.9, -11, -12, -4, 3.3, 5, 3, -5

(list continues)
Results follow in this order: Bfl-1 A1 inh, T cruzi inh, LANA-H2A inh, Beta apoptosis, Ecoli rRNA inh, Calb FLC, Ecoli rRNA inh RFP, ALR inh, Ecoli rRNA inh OD600, Beta2AR agonist
Cc1ccc(F)cc1NC(=O)N1c2ccccc2NC(=O)CC1C (centres undefined)
  -0.4, -11, -5.4, -3, 19, -12, -0.8, -8, 6, 7
COc1ccc(CC(=O)Nc2ccc(-c3noc(-c4ccc(Cl)cc4)n3)cc2)cc1
  0.4, 12, 5.2, 36, x, 11, x, 0, x, -3
NC(N)=NN=C1c2ccccc2-c2ccccc21
  -0.2, -8, -2.8, 10, -8, -14, -2.1, x, -25, x
CCOC(=O)c1sc(/N=C/N(C)C)c(C(=O)OCC)c1C
  -0.4, -8, 1.9, -12, x, 18, x, x, x, -11
Cc1cc(C)c2c(c1)cc(C)c1nnc(SCC(=O)Nc3ccccc3N3CCOCC3)n12
  0.8, 32, -0.3, -4, x, -7, x, -4, x, -13
O=C(O)CC(Cn1[nH]nnc1=S)c1ccccc1 (centres undefined)
  0.6, -11, 2.8, -1, x, -3, x, 32, x, 1
CC(C)(O)C#Cc1ccc(C(=O)NC(CCCNC(N)=O)C(=O)O)s1 (centres undefined)
  -0.9, -1, 3.5, -2, 14, 5, -2.0, 2, 8, 1
NC(=O)CC(NC(=O)c1cccc(Br)c1)c1ccc(NCC2CC2)c([N+](=O)[O-])c1 (centres undefined)
  -1.6, -15, 0.0, x, 6, -2, 0.4, 6, 0, -12
O=C(CNC(=O)c1ccc(Cl)cc1Cl)OCc1nc2ccccc2s1
  0.2, -2, -3.4, -2, -3, -2, 4.7, -4, 5, -2
C[C@@H](O)C1NC(=O)[C@H](CCCCN)NC(=O)c2cc([N+](=O)[O-])cc(F)c2NCCCC[C@@H](C(N)=O)NC1=O (some centres undefined)
  1.0, -11, -1.2, 3, x, 5, x, -5, x, -6
Cn1cc(SCC(=O)O)c2ccccc21
  -0.8, -18, 3.9, -8, x, -7, x, 12, x, 3
CC1(C)COCN1C(=O)c1ccc(Cl)c(Cl)c1
  0.7, -20, 0.8, -1, 7, 0, -0.6, -15, 12, 7
CCC(=O)n1nc(-c2cccnc2)nc1NCc1ccc(F)cc1
  1.7, -14, -1.5, -10, 3, 7, -0.2, x, 3, 1
COc1ccc(C(=O)COc2ccc3ccc(=O)oc3c2)cc1
  -0.2, -16, -3.9, 1, 5, -3, -4.1, -4, 3, 3
N#Cc1c(NC(=O)CSc2ncccn2)oc(-c2ccccc2)c1-c1ccccc1
  0.5, 11, -2.3, 0, x, 7, x, 5, x, 49*
O=C(CNC(=O)c1ccc(Br)o1)NNC(=O)c1n[nH]c(=O)c2ccccc12
  2.5, x, -1.8, -1, 14, x, 4.5, -1, 20, -3
O=C(CCCN1C(=O)c2ccccc2C1=O)N1CCCCC1
  -0.1, -8, 2.1, 2, x, -10, x, -5, x, 2
CC(C)(C)c1ccc(CN2N=C(/C=C/c3ccccc3)CCC2=O)cc1
  1.0, 13, -5.0, x, 10, 13, 1.7, -2, 9, -1
C=C(C)Cn1c(-c2ccc(OC)cc2)nc2ccccc21
  0.4, 27, -3.6, 6, x, 9, x, -10, x, -2
Cc1cnc(NC(=O)c2cc3c(s2)CCCC3)s1
  -12, 2, 2.0, 12, x, -21, x, x, x, 0

Ordered by length of the SMILES (falling): part of the list above.
Results follow in this order: Bfl-1 A1 inh, T cruzi inh, LANA-H2A inh, Beta apoptosis, Ecoli rRNA inh, Calb FLC, Ecoli rRNA inh RFP, ALR inh, Ecoli rRNA inh OD600, Beta2AR agonist
CCC(/C=N/Nc1ccc(S(=O)(=O)N2CCCC2)cc1[N+](=O)[O-])CC
  0.4, -11, 2.2, -6, 11, 8, 12, -1, 2, 3
Cc1cc(OCC(=O)NCc2cccnc2)c2c(C)c(C)c(=O)oc2c1
  1.2, -8, 0.3, 1, 1, 6, -3.4, 0, 2, -6
O=C(CNC(=O)c1ccc(Cl)cc1Cl)OCc1nc2ccccc2s1
  0.2, -2, -3.4, -2, -3, -2, 4.7, -4, 5, -2

Remaining list, next part.
Results follow in this order: Bfl-1 A1 inh, T cruzi inh, LANA-H2A inh, Beta apoptosis, Ecoli rRNA inh, Calb FLC, Ecoli rRNA inh RFP, ALR inh, Ecoli rRNA inh OD600, Beta2AR agonist
CC(NC(=O)c1cccs1)C(c1cccs1)N1CCN(c2ccccc2)CC1 (centres undefined)
  0.8, 2, 1.3, 3, -8, 15, 4.8, 68, -10, -9
O=C(Cc1ccc([N+](=O)[O-])cc1)NCc1ccc2c(c1)OCO2
  -0.2, -14, -0.1, 7, x, 6, x, x, x, -3
Cc1ccc(NC(=S)NCCC2=CCCCC2)cc1
  0.5, 11, 1.8, 0, -6, 4, 0.4, 1, -15, 1
O=C(NCCCN1CCOCC1)c1cc(-c2ccc(Br)cc2)on1
  -0.6, 1, 0.8, 5, x, -14, x, x, x, 0
CCOc1ccccc1-n1c(SCC(N)=O)nc2ccccc2c1=O
  -0.7, -14, 1.1, 0, x, -1, x, -4, x, 3
O=C1N(c2ccccc2C(F)(F)F)O[C@@]1(c1ccccc1)C1CCCC1
  0.5, x, -4.6, -2, 13, x, -3.3, -16, 11, 10
CSc1nsc(SCc2cnc(C)nc2N)n1
  0.7, 21, -3.2, -2, x, -1, x, -44, x, -15
Cc1ccc2c(C)c(C(=O)N(Cc3cccs3)C3CCS(=O)(=O)C3)oc2c1 (centres undefined)
  0.0, 9, -1.9, -3, x, 2, x, -3, x, -6
CNc1nc(N)c([N+](=O)[O-])c(NCc2ccccc2)n1
  -0.4, -38, -1.4, -1, 2, -6, -3.9, -4, 7, -3
COCC(C)N=C1SCCN1Cc1ccccc1 (centres undefined)
  -0.5, 12, -2.4, 3, 2, 3, -1.8, -2, 6, -7
S=C(Nc1ccccc1)N(Cc1ccccc1)Cc1ccncc1
  -0.3, 29, 2.2, -4, -5, 16, 0.9, x, -11, 0
O=C(O)C1CCCCC1C(=O)Nc1nccs1 (centres undefined)
  0.7, 2, 6.3, 1, x, -3, x, -11, x, 5
CC(C)Cc1nnc(NC(=O)CCC(=O)N2CCC(C)CC2)s1
  0.4, -13, 2.9, -4, -1, 7, 2.1, -1, 2, -2
Oc1[nH]c2ccccc2c1N=Nc1nc2ccccc2s1
  -3.7, 11, 6.5, -3, x, -11, x, 88*, x, -2
CCCn1c(-c2ccc(F)cc2)n[nH]c1=S
  0.7, 2, 1.5, -7, x, u, x, 56, x, 3
Cc1ccc(N(Cc2ccccc2)C(=O)c2cc(S(=O)(=O)N3CCOCC3)ccc2C)cc1
  -0.8, 12, 4.9, 3, -9, 5, 3.8, 1, -25, 5
CC(=O)/C(N=Nc1ccc(SC(F)F)cc1)=C(\C)O
  -6.6, 4, 0.0, 5, 17, -27, 1.0, -17, 17, 8
COc1cc(OC)c(C(=O)NCC2CCCO2)cc1OC (centres undefined)
  0.2, -9, -1.6, 2, 1, 1, -1.5, 9, -2, -4
Cc1csc2nc(O)c(C(=O)NC3CCCCCC3)c(=O)n12
  -0.7, -1, 7.8, x, 5, -6, -3.1, 5, -1, 9
CCOC(=O)c1ccc(N2C(=O)CC(NC3CCN(C(=O)c4cccc(Cl)c4)CC3)C2=O)cc1 (centres undefined)
  0.9, -4, -5.1, 4, x, 1, x, -14, x, x
COc1ccccc1OCC(=O)OC/C(O)=C(\C#N)c1nc2ccccc2[nH]1
  -1.2, -13, -3.0, 11, 12, -10, 7.4, 0, 4, 7
COc1ccc(NC(=O)Nc2ccc3nonc3c2)cc1
  -1.0, 22, 4.0, x, 3, -6, -2.4, -2, 1, -5
Cn1c(SCc2ccccc2)nc2ccsc2c1=O
  -0.4, -4, -1.1, 12, -43, -3, -14, 0, -66, -4

Source: PubChem

Some of the compounds tested, so the mix of outcomes need not match the whole.
